DUX4 inh – DUX4-mediated transcription inhibition; 37,000 compounds, 0.8% hits; activity change, negative = inhibition, % (no concentration beside the values); 293T-iDUX4 ZSCAN4-Gaussia luciferase reporter, 24 h; active compounds read low;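 active means -10% or lower and over 25 points stronger than a control reporter; inconclusive means -10% or lower with a smaller gap; inactive means above -10%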;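 further: 0% = median of neutral control wells and -100% = median of positive control wells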
DUX4 inh difference – second read-out of DUX4 inh, no call of its own (marks repeat the call); Gaussia minus Italica difference, %; measured here: selective DUX4 reporter inhibition;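 worked out from the two reporters; negative = selective loss of the DUX4 reporter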
DUX4 inh control – further read-out of DUX4 inh, marked with its call; activity change, negative = inhibition, %; measured here: Italica tet-on control reporter;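 0 = neutral control and -100 = positive control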
An asterisk follows results filed as active; ? = inconclusive; . = no result given. Some of the compounds tested, so the mix of outcomes need not match the whole.

SMILES	DUX4 inh	DUX4 inh difference	DUX4 inh control
O=C(c1cccc(F)c1)N1CC(=O)N2[C@H](CO)[C@@H](c3ccc(/C=C/c4ccccc4)cc3)[C@H]2C1	-7.6	-1.5	-6.0
COc1ccc(CNC(=O)C[C@@H]2C=C[C@@H](NC(=O)Nc3ccc4c(c3)OCO4)[C@H](CO)O2)cc1	3.4	0.1	3.4
CC(=O)N1CC2(C1)[C@H](c1ccc(-c3ccc(C#N)cc3)cc1)[C@H](CO)N2C(=O)C1CC1	4.0	3.8	0.3
CC(C)NC(=O)N[C@@H]1C=C[C@@H](CC(=O)NCCCN(C)C)O[C@H]1CO	2.4	0.0	2.5
C[C@@H]1CN([C@@H](C)CO)C(=O)c2cccc(NC(=O)C3CCCCC3)c2O[C@H]1CN(C)S(C)(=O)=O	2.6	1.1	1.5
CCC(=O)N1[C@H](CO)[C@@H](c2ccccc2)C12CN(C(=O)Cc1ccccc1)C2	2.1	3.8	-1.7
Cn1cnc(S(=O)(=O)N2CCCCN3[C@H](CO)[C@@H](c4ccc(C#CC5CCCC5)cc4)[C@H]3C2)c1	-8.9	-7.2	-1.7
O=C(c1cccnc1)N1CC2(C1)[C@@H](c1ccccc1)[C@@H](CO)N2C(=O)C1CCC1	8.6	1.1	7.5
CCCN1[C@@H]2c3ccc(-c4ccccc4)c(=O)n3C[C@@H]2[C@@H](CO)[C@@H]1C(=O)N1CCOCC1	2.3	-5.5	7.7
C[C@H]1CC=CC[C@@H](c2ccc3c(c2)OCO3)NC(=O)[C@H](C)N(C)C(=O)c2ccccc2O1 (mixture of isomers)	-5.1	-4.8	-0.2
C[C@@H]1CN([C@H](C)CO)C(=O)c2ccccc2-c2ccccc2CO[C@H]1CN(C)C(=O)Nc1ccnc(N2CCOCC2)c1	5.0	-0.8	5.8
COc1ccc2c3c([nH]c2c1)[C@H](CO)N(CC1CC1)CC31CN(C(=O)c2ccccc2F)C1	?	.	.
CCC(=O)N1CCC2(CC1)CN[C@H](CO)c1c2c2ccc(OC)cc2n1C	7.4	-1.2	8.7
COCC(=O)N1CC2(CN(Cc3ccc(Cl)cc3)C2)c2c([nH]c3cc(OC)ccc23)[C@@H]1CO	-4.7	-10.1	5.4
N#C[C@@H]1[C@H](c2ccc(C3=CCCC3)cc2)[C@H](CO)N1C(=O)c1ccccn1	-1.7	1.0	-2.8
COc1ccccc1S(=O)(=O)N(C)C[C@H]1Oc2ncc(-c3ccc(C)cc3)cc2C(=O)N([C@H](C)CO)C[C@H]1C	0.8	-2.1	2.9
O=C(C[C@@H]1CC[C@H]2[C@@H](COC[C@H](O)CN2C(=O)c2ccccc2F)O1)NCc1ccc(Cl)c(Cl)c1	?	.	.
O=C(C1CCC1)N1CC2(C1)[C@H](c1ccccc1)[C@H](CO)N2Cc1cncnc1	-4.4	-7.9	3.4
COc1ccc(S(=O)(=O)Nc2ccc3c(c2)CC(=O)N([C@H](C)CO)C[C@H](C)[C@@H](CN(C)C(=O)Nc2c(C)noc2C)O3)cc1	-0.6	-2.0	1.5
CC(C)C#Cc1ccc([C@H]2[C@@H](CO)N(C(=O)C3CCOCC3)[C@H]2C#N)cc1	-1.3	-3.3	1.9
Cc1noc(C)c1S(=O)(=O)N(C)C[C@H]1OCc2cnnn2CCCC(=O)N([C@H](C)CO)C[C@H]1C	3.3	2.2	1.2
C[C@@H](NC(=O)[C@@H]1[C@@H](CO)[C@@H]2Cn3c(cccc3=O)[C@H]1N2C(=O)C1CC1)c1ccccc1	3.4	-4.2	7.6
CCC(=O)N1[C@@H](CO)[C@@H](c2ccccc2)C12CN(C(=O)CN1CCOCC1)C2	6.4	5.0	1.4
CCN1[C@@H]2c3ccc(-c4ccccc4OC)c(=O)n3C[C@H]1[C@H](CO)[C@H]2C(=O)NCc1ccccn1	0.6	2.6	-2.0
O=C(C[C@H]1CC[C@@H]2[C@H](COC[C@@H](O)CN2Cc2ccc3c(c2)OCO3)O1)N1CCCCC1	1.4	-0.2	1.6
O=C(c1ccccn1)N1CC[C@@H]2[C@@H](CO)Nc3ccc(C#Cc4cccnc4)cc3[C@@H]21	?	.	.
CS(=O)(=O)N1CC(=O)N2[C@H](CO)[C@@H](c3ccc(Br)cc3)[C@@H]2C1	6.2	-2.0	8.2
C[C@@H]1CN([C@H](C)CO)C(=O)CCCn2nncc2CO[C@@H]1CN(C)C(=O)Nc1ccccc1F	-1.8	-2.4	0.5
CCC(=O)N1C[C@H](O)COC[C@@H]2O[C@@H](CC(=O)N3CCCCC3)CC[C@H]21	5.6	3.5	2.1
CC(C)C(=O)Nc1ccc2c(c1)C(=O)N(C)[C@@H]1CC[C@H](CC(=O)NCCc3ccccc3)O[C@@H]1CO2	-1.8	-1.0	-0.8
CC=Cc1ccc2n(c1=O)C[C@@H]1[C@@H](CO)[C@H](C(=O)NCCC)[C@H]2N1Cc1nccs1 (mixture of isomers)	-1.4	1.4	-2.8
CCCN1C[C@H](C)[C@@H](OC)CN(C)C(=O)c2ccc(NS(C)(=O)=O)cc2OC[C@H]1C	5.7	5.9	-0.2
C[C@@H]1CN([C@@H](C)CO)C(=O)c2cccc(NC(=O)Nc3ccc(F)cc3)c2O[C@@H]1CN(C)Cc1ccc(-c2ccccc2)cc1	2.9	5.8	-2.9
O=S(=O)(c1ccccc1)N1CCCCN2[C@@H](CO)[C@@H](c3ccc(C#CC4CCCC4)cc3)[C@@H]2C1	13.1	5.6	7.5
COc1ccccc1NC(=O)N[C@@H]1CC[C@H](CCNS(=O)(=O)c2ccc(Cl)cc2)O[C@H]1CO	-8.0	-9.2	1.2
O=C(C[C@@H]1CC[C@@H]2NC[C@H](O)COC[C@H]2O1)NCCN1CCCCC1	2.3	-4.6	6.9
CCCNC(=O)C[C@@H]1CC[C@H]2[C@@H](COC[C@H](O)CN2C(=O)Nc2ccc(Cl)c(Cl)c2)O1	-6.7	-1.9	-4.8
CC(C)NC(=O)Nc1ccc2c(c1)C(=O)N(C)[C@@H]1CC[C@H](CC(=O)NCC3CCCCC3)O[C@@H]1CO2	-1.0	-4.9	3.9
COc1ccccc1-c1ccc2n(c1=O)C[C@@H]1[C@@H](CO)[C@H](C(=O)O)N(C(=O)c3cccnc3)[C@H]21	9.8	4.4	5.4
O=C(C[C@@H]1CC[C@H]2[C@@H](COC[C@H](O)CN2Cc2ccccc2F)O1)N[C@H]1CCN(Cc2ccccc2)C1	?	.	.
O=C(C[C@@H]1C=C[C@H](NS(=O)(=O)c2cccc(F)c2)[C@@H](CO)O1)N1CCCCC1	-0.3	2.4	-2.7
O=C(C[C@H]1CC[C@H]2[C@@H](COC[C@@H](O)CN2Cc2ccc3c(c2)OCO3)O1)N1CCCCC1	-9.4	-11.0	1.6
CN(C)Cc1cn(CC[C@H]2CC[C@@H](NC(=O)Nc3ccc4c(c3)OCO4)[C@H](CO)O2)nn1	-0.3	2.1	-2.5
COc1ccc(S(=O)(=O)N2CC[C@@H]3[C@H]2c2cc(-c4ccccc4F)ccc2N[C@@H]3CO)cc1	8.6	1.3	7.2
C[C@@H]1CN([C@@H](C)CO)C(=O)c2c(c3ccccc3n2C)-c2ccccc2CO[C@H]1CN(C)C(=O)Nc1ccnc(N2CCOCC2)c1	21.6	8.2	13.4
CO[C@H](CN(C)S(=O)(=O)c1cccc(Cl)c1)[C@@H](C)CN(C(=O)Nc1ccccc1F)[C@@H](C)CO	-2.1	-9.9	7.8
CC(C)NC(=O)N(C)C[C@H]1OCc2ccccc2-c2ccccc2C(=O)N([C@@H](C)CO)C[C@@H]1C	13.3	6.2	7.1
CC(=O)N1CC2(C1)[C@@H](c1ccccc1)[C@H](CO)N2C(=O)Cc1ccccc1	13.4	6.8	6.6

Look-ups from the entries so far:
In DUX4 inh control, O=C(C[C@H]1CC[C@H]2[C@@H](COC[C@@H](O)CN2Cc2ccc3c(c2)OCO3)O1)N1CCCCC1 is entered as 1.6
In DUX4 inh, CO[C@H](CN(C)S(=O)(=O)c1cccc(Cl)c1)[C@@H](C)CN(C(=O)Nc1ccccc1F)[C@@H](C)CO is entered as -2.1

The listing continues:
SMILES	DUX4 inh	DUX4 inh difference	DUX4 inh control
COc1ccc2c3c([nH]c2c1)[C@H](CO)N(C(=O)c1ccc(F)cc1)CC31CN(C(=O)CC2CC2)C1	10.7	-9.2	19.9
O=C(c1cccc(F)c1)N1CCCCN2[C@@H](CO)[C@H](c3ccc(-c4cncnc4)cc3)[C@@H]2C1	10.1	3.7	6.4
Cc1ccc(S(=O)(=O)N2C[C@@H](O)COC[C@@H]3O[C@H](CC(=O)N[C@@H]4CCN(Cc5ccccc5)C4)CC[C@H]32)cc1	4.9	7.1	-2.1
Cc1noc(C)c1NC(=O)N[C@@H]1C=C[C@H](CC(=O)N2CCCCC2)O[C@H]1CO	5.8	4.2	1.6
CN(C)CC#Cc1ccc([C@H]2[C@H]3CN(C(=O)NC4CCCC4)CCCCN3[C@H]2CO)cc1	17.6	-1.8	19.4
CCCNC(=O)N1CCC2(CC1)CN(C(=O)CC1CC1)[C@@H](CO)c1c2c2ccc(OC)cc2n1C	27.2	20.7	6.5
O=C(Cc1ccncc1)N1CC(=O)N2[C@H](CO)[C@H](c3ccc(C4=CCCC4)cc3)[C@@H]2C1	12.3	12.4	-0.1
C[C@H](NC(=O)N(C)C[C@H]1OCc2ccccc2-c2ccccc2C(=O)N([C@H](C)CO)C[C@H]1C)c1ccccc1	0.5	-4.7	5.3
O=C(C[C@H]1CC[C@@H]2[C@H](COC[C@H](O)CN2Cc2ccc(Oc3ccccc3)cc2)O1)Nc1nccs1	?	.	.
C[C@H](CO)N1C[C@H](C)[C@H](CN(C)C(=O)Nc2cccc(C(F)(F)F)c2)OCc2ccccc2-c2c(n(C)c3ccccc23)C1=O	?	.	.
CCC(=O)N1[C@H](C#N)[C@H](c2ccccc2-c2ccccc2)[C@@H]1CO	4.4	2.0	2.4
C[C@H](CO)N1C[C@H](C)[C@H](CN(C)S(=O)(=O)c2ccc(C(F)(F)F)cc2)OCc2ccccc2-c2c(n(C)c3ccccc23)C1=O	?	.	.
O=C(CCN1CCCCC1)NCC[C@H]1CC[C@H](NC(=O)C2CCOCC2)[C@H](CO)O1	3.6	-2.8	6.4
Cc1ccc(S(=O)(=O)N(C)C[C@@H]2OCCCC[C@@H](C)Oc3ccc(NC(=O)C4CCCCC4)cc3C(=O)N([C@H](C)CO)C[C@@H]2C)cc1	-1.5	-1.9	0.4
O=C(Nc1cccc(Cl)c1)N1C[C@@H]2[C@H](c3ccccc31)[C@H](CO)N2Cc1ccncc1	2.7	0.1	2.6
C[C@@H]1CN([C@@H](C)CO)C(=O)c2cccc(NC(=O)Nc3ccc(C(F)(F)F)cc3)c2O[C@H]1CN(C)S(=O)(=O)c1cn(C)cn1	0.1	-4.8	4.9
CNC[C@@H]1Oc2ccc(NS(=O)(=O)c3cn(C)cn3)cc2CC(=O)N([C@@H](C)CO)C[C@H]1C	-1.0	3.0	-4.0
CCC(=O)N1C[C@@H](O)COC[C@@H]2O[C@@H](CC(=O)NCC3CCCCC3)CC[C@H]21	6.5	4.7	1.8
CN1c2ccc(-c3cccc(F)c3)cc2[C@@H]2[C@@H](CCN2C(=O)C2CCC2)[C@H]1CO	-35.4*	-26.1*	-9.3*
CC(=O)N(C)C[C@H]1[C@H](c2ccccc2)[C@@H](CO)N1C(=O)C1CC1	-1.2	-2.0	0.8
CC(C)(O)C#Cc1ccc([C@@H]2[C@H](CO)N3CCCCN(C(=O)c4cccnc4)C[C@@H]23)cc1	8.3	4.0	4.3
C[C@@H]1CN([C@H](C)CO)C(=O)c2cc(NC(=O)NC3CCCCC3)ccc2O[C@@H](C)CCCCO[C@@H]1CN(C)C(=O)Nc1ccc(F)cc1	-1.5	-0.9	-0.5
CC(C)CC#Cc1ccc([C@@H]2[C@H](CO)N3C(=O)CN(C(=O)NC4CCCCC4)C[C@@H]23)cc1	?	.	.
CS(=O)(=O)N1[C@H](CO)[C@@H](c2ccc(C#Cc3cccc(F)c3)cc2)[C@@H]1C#N	-1.7	-1.8	0.1
CCCN1[C@H](C(=O)NC2Cc3ccccc3C2)[C@@H](CO)[C@@H]2Cn3c(ccc(C4=CCCC4)c3=O)[C@@H]21	2.8	-1.5	4.4
CCCNC(=O)N1CCC2(CC1)CN(C(C)=O)[C@H](CO)c1[nH]c3cc(OC)ccc3c12	8.8	1.5	7.3
CCCNC(=O)N1CC2(CN(S(=O)(=O)CC)C2)c2c(n(C)c3cc(OC)ccc23)[C@@H]1CO	12.3	6.7	5.5
CCC(=O)N1CC2(C1)[C@@H](c1ccccc1)[C@H](CO)N2CC1CCOCC1	-0.2	-9.1	8.9
CN1C(=O)c2cc(NC(=O)C3CC3)ccc2OC[C@H]2O[C@@H](CC(=O)NCCN3CCCC3)CC[C@H]21	2.6	0.4	2.2

Limited to DUX4 inh difference, for some of the entries so far:
| Structure | DUX4 inh difference |
| --- | --- |
| O=C(c1cccc(F)c1)N1CC(=O)N2[C@H](CO)[C@@H](c3ccc(/C=C/c4ccccc4)cc3)[C@H]2C1 | -1.5 |
| CC=Cc1ccc2n(c1=O)C[C@@H]1[C@@H](CO)[C@H](C(=O)NCCC)[C@H]2N1Cc1nccs1 (mixture of isomers) | 1.4 |
| C[C@@H]1CN([C@@H](C)CO)C(=O)c2cccc(NC(=O)Nc3ccc(F)cc3)c2O[C@@H]1CN(C)Cc1ccc(-c2ccccc2)cc1 | 5.8 |
| CN1C(=O)c2cc(NC(=O)C3CC3)ccc2OC[C@H]2O[C@@H](CC(=O)NCCN3CCCC3)CC[C@H]21 | 0.4 |
| COc1ccc(S(=O)(=O)Nc2ccc3c(c2)CC(=O)N([C@H](C)CO)C[C@H](C)[C@@H](CN(C)C(=O)Nc2c(C)noc2C)O3)cc1 | -2.0 |
